# Source: PubChem (National Center for Advancing Translational Sciences (NCATS))
# Cruzain inh Det: qHTS Assay for Promiscuous and Specific Inhibitors of Cruzain (with detergent); Potency, µM, inactives show max response, negative = inhibition, actives largely listed as inhibitors; AID 1478, 2009; actives 0.43% (n = 200,000); purified cruzain, Z-FR-AMC fluorescence, 0.01% Triton;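 further: plate controls were neutral wells for no effect and buffer without enzyme for full effect; nearly all actives have a fitted effect of over 40% in size; top concentration of the series not given in the record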
# Target sequence (P25779 123-467 limits assumed): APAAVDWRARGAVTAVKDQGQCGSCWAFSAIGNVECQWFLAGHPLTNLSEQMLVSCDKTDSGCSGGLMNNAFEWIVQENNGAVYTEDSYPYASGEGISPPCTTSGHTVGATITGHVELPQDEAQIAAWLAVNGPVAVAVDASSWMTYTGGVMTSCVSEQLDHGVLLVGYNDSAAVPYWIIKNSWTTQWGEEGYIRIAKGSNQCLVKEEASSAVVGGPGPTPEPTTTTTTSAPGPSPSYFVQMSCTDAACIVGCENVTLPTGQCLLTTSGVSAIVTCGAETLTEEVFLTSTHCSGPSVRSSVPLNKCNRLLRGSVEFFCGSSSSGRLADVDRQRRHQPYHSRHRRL
#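 In this qHTS format, compounds are incubated with 1.5 nM cruzain for 15 min at room temperature before 2 uM Z-FR-AMC is added. Release of AMC is followed at 360/450 nm, and progress is taken as the 60 s fluorescence difference.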
# 2A StopGo: High Throughput Screening for Foot and Mouth Disease Virus Antivirals | Potency, µM (series often up to 57.9 µM), for the others: at the highest dose signal change, negative = less light | human cells with a luciferase reporter of 2A StopGo recoding; control for the full effect not named in the record | actives 1.2% (n = 410,000) | AID 1159524, 2015; active = well fitted falling curve with a large enough effect; inconclusive = small, poorly fitted or top-dose-only effect; inactive = no such curve, though single readings can be large or run the other way; tested in HEK293T cells; further: on the % scale 0 is the no-effect control and ±100 the full control effect; nearly all actives have a fitted effect of over 45% in size; luciferase light after 4 h
# RE007 growth inh: qHTS Assay for Inhibitors of the HIV-1 protein Vpr. AID 651644, 2012. S. pombe RE007 Vpr strain, BacTiter-Glo ATP luminescence, 24 h; control for the full effect not named in the record. Potency, µM (series often up to 92.2 µM), inactives show at the top dose activity change, negative = less growth. actives 0.21% (n = 360,000); active = well fitted falling curve with a large enough effect; inconclusive = small, poorly fitted or top-dose-only effect; inactive = no such curve, though single readings can be large or run the other way;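 further: on the % scale 0 is the no-effect control and ±100 the full control effect; nearly all actives have a fitted effect of over 50% in size; the assay follows cell death caused by Vpr and the record does not say whether a fall means rescue or toxicity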
#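 Fission yeast strain RE007, carrying one chromosomally integrated HIV-1 vpr copy, was seeded at OD 0.01 in PMG+AL medium with 23 nL pinned compound. After 24 h at 30 °C and 99% humidity, viability was read by BacTiter-Glo luminescence.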
# LASV entry inh: qHTS for Inhibitors of binding or entry into cells for Lassa Virus | Lassa virus pseudotype entry inhibition, cell reporter; control for the full effect not named in the record | Potency, µM (highest dose often 37.9 µM), without a hit: top-dose activity change, negative = inhibition, hits mostly inhibitors | actives 1.2% (n = 300,000) | AID 540256, 2011; active means well fitted inhibition curve with a large enough effect; inconclusive means small, poorly fitted or top-dose-only effect, or effect the other way; inactive means flat fitted curve, though single readings scatter; tested in HEK293 cells; further: on the % scale 0 is the no-effect control and ±100 the full control effect; nearly all actives have a fitted effect of over 50% in size; luciferase read-out
# NS1 inh: qHTS Assay for Inhibitors of Influenza NS1 Protein Function; actives 0.4% (n = 270,000); S. cerevisiae slowed by influenza A NS1, growth recovery by OD600; AID 2326, 2010; Potency, µM (titrated, usually from 46.1 µM), for the others: top-dose activity, positive = more growth; active means well fitted rising curve with a large enough effect; inconclusive means small, poorly fitted or top-dose-only effect; inactive means no such curve, though single readings can be large or run the other way; further: nearly all actives have a fitted effect of over 50% in size
#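 In this qHTS, NS1 from influenza A is expressed in budding yeast, where it slows growth. Cells are switched from glucose to 2% galactose medium (pH 6.0, -URA), treated with compound, and growth recovery is read at OD600.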
# Cruzain noTriton: qHTS Assay for Promiscuous and Specific Inhibitors of Cruzain (without detergent). Cruzipain (Trypanosoma cruzi), P25779. purified cruzain, Z-FR-AMC fluorescence, no detergent. Potency, µM, without a hit: max response, negative = inhibition, hits mostly inhibitors. actives 2.3% (n = 200,000). AID 1476, 2009;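 further: plate controls were enzyme without inhibitor for no effect and buffer without enzyme for full effect; nearly all actives have a fitted effect of over 40% in size; top concentration of the series not given in the record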
#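 Purified cruzain at 1.5 nM, pre-incubated 15 min with compound at room temperature in 100 mM sodium acetate pH 5.5, 5 mM DTT, 0.00005% Triton X-100. Reaction started with 2 uM Z-FR-AMC; AMC fluorescence increase over 60 s gives rate.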
# SARS PLpro yeast: qHTS of Yeast-based Assay for SARS-CoV PLP | S. cerevisiae expressing SARS-CoV PLpro, growth rescue; control for the full effect not named in the record | Potency, µM (highest dose often 32.9 µM), for the others: at the top dose activity, positive = growth rescue | actives 0.19% (n = 330,000) | AID 485353, 2010; active means well fitted rising curve with a large enough effect; inconclusive means small, poorly fitted or top-dose-only effect; inactive means no such curve, though single readings can be large or run the other way; further: 0% is about no effect; nearly all actives have a fitted effect of over 55% in size; growth read by luminescence after 48 h
# Marburg entry inh: qHTS for inhibitors of binding or entry into cells for Marburg Virus | actives 1.8% (n = 300,000) | Potency, µM (doses to about 37.8 µM), inactives show at the top dose activity change, negative = inhibition, usual class: inhibitors | Marburg virus pseudotyped entry inhibition, cell reporter; control for the full effect not named in the record; about a third of the inactives were read at about 46 µM; active = well fitted inhibition curve with a large enough effect; inconclusive = small, poorly fitted or top-dose-only effect, or effect the other way; inactive = flat fitted curve, though single readings scatter; tested in HEK293 cells; about a fifth of its hits are not listed in these tables; further: on the % scale 0 is the no-effect control and ±100 the full control effect; luciferase read-out
# * = called active by the depositor; ? = inconclusive; nt = not tested or not shown; & = joins results of further samples; [ ] = another dose, or the depositor's remark. Unless noted, the call rests on the fitted dose curve; in most records, active means well fitted curve in the direction sought with a large enough effect; inconclusive means small, poorly fitted or top-dose-only effect, or another doubt; inactive means no such curve, though single readings can be large; an effect the other way counts as inactive or inconclusive. Potency means the concentration at half of the fitted maximal effect. No enrichment for hits (roughly 4.7% active in at least one column).
SMILES	Cruzain inh Det	2A StopGo	RE007 growth inh	LASV entry inh	NS1 inh	Cruzain noTriton	SARS PLpro yeast	Marburg entry inh
O=C(NC12CC3CC(CC(C3)C1)C2)C1CCCN1C(=O)NC1CCCCC1 (stereo not drawn)	3.2%	10%	7%	3%	-4%	2%	8%	-15%
CCc1nc(N2CCOCC2)c(C#N)c2c1COC(C)(C)C2	-5.6%	-14%	12%	0%	-4%	1%	4%	2%
Cn1c(=O)cc(N2CCc3ccccc32)[nH]c1=O	-3.0%	-6%	9%	nt	-8%	-5%	-3%	nt
Cc1cccc(OCC(=O)Nc2ccc3oc(=O)ccc3c2)c1C	nt	3%	-7%	1%[46.1 µM]	-30%	nt	1%	-15%[46.1 µM]
COc1ccccc1/C=C(\NC(=O)c1ccc(OC)c(OC)c1)C(=O)Nc1cccc([N+](=O)[O-])c1	-2.5%	-10%	-7%	?	?	9%	4%	2%
Cc1ccnc(N2C(=O)c3ccccc3C2Nc2cccc(C)c2C)c1 (stereo not drawn)	-5.7%	2%	-4%	nt	-2%	-16%	-9%	nt
CC(=O)Nc1nonc1-c1nnc(SCc2ccccc2F)n1C	-1.3%	-20%	nt	17%[46.1 µM]	nt	-9%	nt	8%[46.1 µM]
CCOC(=O)N1CCN(C(=O)CSC2=NS(=O)(=O)c3cc(F)ccc3N2)CC1	nt	7%	2%	17%	nt	nt	7%	24%[46.1 µM]
O=C(Nc1cc(Cl)ccc1-n1cncn1)c1ccc(F)c(S(=O)(=O)N2CCOCC2)c1	nt	-16%	3%	11%	nt	nt	-8%	?
COCCCNC(=O)CN1C(=O)c2c(c3ccccc3n2C)C1c1ccc(OC)cc1 (stereo not drawn)	-1.7%	-11%	nt	-1%[46.1 µM]	nt	?	nt	nt
N#Cc1c(-c2ccccc2)nc(SCc2ccc(Cl)cc2)[nH]c1=O	nt	-19%	-1%	5%	-1%	nt	-3%	0%[46.1 µM]
C=CCN(CC=C)C(=O)c1ccncc1	4.8%	9%	?	1%	5%	0%	?	1%
CCOc1ccc2nc(NC(=O)CSc3nnc(-c4ccncc4)n3CC3CCCO3)sc2c1 (stereo not drawn)	-0.1%	27%	1%	4%	-16%	?	1%	7%&7%
Cc1ccc(CNS(=O)(=O)c2c(C)[nH]c(C)c2C(=O)N2CCCCC2)o1	nt	17%	8%	6%[46.1 µM]	2%	nt	3%	-15%[46.1 µM]
CC(=O)c1ccc(NC(=O)C(C)N(C)CC(=O)Nc2ccc(Cl)cc2)cc1 (stereo not drawn)	nt	-9%	7%	nt	nt	nt	-21%	-1%[46.1 µM]
COCC1CCN(C(=O)c2cc(COc3cncc(Cl)c3)on2)C1 (stereo not drawn)	nt	-16%	-9%	nt	15%	nt	1%	nt
Cc1[nH]c2ccccc2c1C(=O)CN1CC=C(c2ccccc2)CC1	-12%	?	-6%	?	-14%	-19%	-10%	5%
CCOc1cc(-c2nc(-c3ccc(Br)cc3)no2)cc(OCC)c1OCC	0.4%	-10%	nt	9%[46.1 µM]	nt	-11%	nt	26%[46.1 µM]
O=C(N/N=C/c1ccncc1)c1ccc(NS(=O)(=O)c2cccs2)cc1	nt	12%	-25%	11%	nt	nt	2%	?
CN1CCNC(=O)C1CC(=O)NCC1(c2ccccc2)CCCCC1 (stereo not drawn)	nt	-15%	25%	nt	5%	nt	1%	nt
CCOC(=O)N1CCC(N2C(=O)c3ccc(C(=O)Nc4ccc(F)cc4F)cc3C2=O)CC1	-0.2%	-23%	4%	-15%	-15%	-15%	8%	?
CC(C)CNC(=O)c1cccc(NC(=O)C(C)Oc2ccccc2)c1 (stereo not drawn)	nt	-10%	0%	?	-3%	nt	-2%	27%[46.1 µM]
CCOC(=O)c1c(-c2ccc(OC)cc2)oc2ccc(OC(=O)N(C)C)cc12	5.0%	?	2%	?	-69%	?	-15%	18µM*
CC(C)CCNC(=O)C1CCN(S(=O)(=O)c2cccc3nsnc23)CC1	-1.9%	-16%	nt	2%[46.1 µM]	nt	4%	nt	3%[46.1 µM]
COc1cccc(/C=C2\NC(=O)NC2=O)c1O	nt	46%[activator]	-1%	nt	0%	nt	0%	nt
Cc1ccc(-n2c(-c3ccco3)nc3c(cnn3-c3ccccc3C)c2=O)cc1	-3.2%&-3.9%	?	-5%	?	10%	-3%&-9%	0%	-7%[46.1 µM]
O=C(CN1C(=O)c2ccccc2C1=O)Nc1ccc(Cl)cn1	nt	0%	7%	20%	nt	nt	-1%	?
S=C(NCc1ccc2c(c1)OCO2)Nc1ccc(-c2nc3ccccc3[nH]2)cc1	-11%	?	-13%	-12%	19%	20µM*	-1%	?
Cc1ccc(CSC2=NCCN2C(=O)c2ccc([N+](=O)[O-])cc2)cc1	nt	4%	-3%	9%	nt	nt	-11%	11%
COc1ccc(/C=C/C(=O)NC2CC3CCC2C3)cc1 (stereo not drawn)	nt	11%	-26%	nt	-49%	nt	1%	nt

# Laid out differently: 2 of the compounds above
Cn1c(=O)cc(N2CCc3ccccc32)[nH]c1=O
  Cruzain inh Det = -3.0%
  2A StopGo = -6%
  RE007 growth inh = 9%
  LASV entry inh = nt
  NS1 inh = -8%
  Cruzain noTriton = -5%
  SARS PLpro yeast = -3%
  Marburg entry inh = nt
Cc1cccc(OCC(=O)Nc2ccc3oc(=O)ccc3c2)c1C
  Cruzain inh Det = nt
  2A StopGo = 3%
  RE007 growth inh = -7%
  LASV entry inh = 1%[46.1 µM]
  NS1 inh = -30%
  Cruzain noTriton = nt
  SARS PLpro yeast = 1%
  Marburg entry inh = -15%[46.1 µM]

# New compounds follow
SMILES	Cruzain inh Det	2A StopGo	RE007 growth inh	LASV entry inh	NS1 inh	Cruzain noTriton	SARS PLpro yeast	Marburg entry inh
O=C(CSc1nnc(-c2ccc(O)cc2)o1)Nc1ccc2c(c1)OCCO2	5.7%	22%	-10%	?	12%	-8%	4%	-45%
CCc1nnc(NC(=O)/C=C/c2cccs2)s1	nt	60%[activator]	-5%	-2%	1%	nt	0%	6%
Nc1ccc(C(=O)OCC(=O)Nc2cccc(S(=O)(=O)NC3=NCCCCC3)c2)cc1[N+](=O)[O-]	nt	-11%	2%	3%	nt	nt	0%	?
O=c1[nH]c2ccccc2nc1-c1ccc(Cl)cc1	nt	43%[activator]	-5%	?	-2%	nt	0%	10%[46.1 µM]
NNC(=O)C(=O)/C=C1\NC2(CCCC2)Cc2ccccc21	nt	20%	-5%	?	6%	nt	-1%	8%[46.1 µM]
CN(C(=O)CN1CCN(c2ccc([N+](=O)[O-])cn2)CC1)c1ccccc1	nt	-27%	6%	nt	-2%	nt	1%	nt
Cc1ccccc1-c1nc(SCC(=O)NCc2ccc(F)cc2)c2c(=O)n(C)c(=O)n(C)c2n1	1.5%	-11%	nt	13%[46.1 µM]	nt	-5%	nt	nt
CCOc1ccccc1CN1CCNC(=O)C1CC(=O)NCCCn1cccn1 (stereo not drawn)	nt	0%	1%	nt	-4%	nt	1%	nt
O=C(NC1CC1)c1scc2c1OCCO2	6.7%	1%	1%	?	-12%	4%	6%	0%
N#Cc1c(N2CCN(c3ccc([N+](=O)[O-])cc3)CC2)[n+](=O)c2ccc(Cl)cc2n1[O-]	nt	?	?	10µM*	nt	nt	nt	?
O=C1C(=NO)CCCc2ccccc21	nt	-15%	6%	-7%	nt	nt	nt	0%
CCOc1cc(N2CCOCC2)c(OCC)cc1NC(=O)CN1C(=O)NC2(CCc3ccccc32)C1=O (stereo not drawn)	4.0%	-17%	6%	-2%	1%	?	6%	-2%[46.1 µM]
Cc1nc(Nc2ccccc2)sc1C(=O)Nc1ccccc1	nt	24%	3%	?	-3%	nt	-3%	?
CCCOc1ccc(/C=N/NC(=O)CN2CCCCC2)cc1OCC	nt	-3%	-11%	nt	12%	nt	-1%	nt
O=C(NNC(=O)c1ccco1)c1ccc(NS(=O)(=O)c2cccs2)cc1	nt	-2%	12%	10%	nt	nt	2%	-1%[46.1 µM]
Cc1cc(C)cc(N2C(=O)NC(=O)/C(=C\c3cccn3-c3ccc(Cl)cc3)C2=O)c1	-5.2%	8.9µM*	-7%	?	1µM*	-24%	7%	?
CC(=O)NCCc1ccc(S(=O)(=O)Nc2ccc(C)c(S(=O)(=O)N3CCOCC3)c2)cc1	nt	64%[activator]	-3%	nt	-9%	nt	1%	nt
CCOC(=O)c1ccc(S(=O)(=O)N2CCN(CC(=O)NC(=O)NC(C)(C)C)CC2)cc1	-3.4%	-22%	2%	-8%	-8%	29%	-4%	7%
CN(C)CCOC(=O)C1(c2ccccc2)CCCC1	2.2%	1%	-1%	-4%	-2%	0%	2%	2%
COc1ccc(-c2nc(-c3ccc(NC(=O)c4ccncc4)cc3)no2)cc1OC	-0.2%	8.9µM*	-3%	-19%	7%	?	2%	?
Cc1ccc2[nH]c3c(=O)n(CC(=O)N4CCN(c5cccc(C(F)(F)F)c5)CC4)ncc3c2c1	-0.7%	-16%	nt	29%[46.1 µM]	nt	2%	nt	nt
O=C(Nc1ccccc1N1CCOCC1)c1cc2ccccc2o1	nt	-1%	6%	8%[46.1 µM]	-6%	nt	-2%	12%[46.1 µM]
COc1cc(C(c2c(C(=O)O)[nH]c3ccccc23)c2c(C(=O)O)[nH]c3ccccc23)ccc1OCc1ccccc1	nt	13%	33%	-2%[46.1 µM]	6.3µM*	nt	5%	?
